3T3 cytotox – NIH 3T3 cell cytotoxicity. 4.3% of 94,000 active. Potency, µM (series often up to 96.7 µM), without a hit: top-dose activity change, negative = cytotoxicity, hits mostly inhibitors. AID 1345082. NIH 3T3 viability, CellTiter-Glo ATP luminescence, 48-72 h; note: nearly all actives have a fitted effect of over 55% in size
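Viability of NIH 3T3 cells after 48 or 72 hr compound treatment at 37 °C was assessed by CellTiter-Glo, with luminescence imaged following a 10 min room-temperature step.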
GPT2 inh – inhibitors of human GPT2 alanine aminotransferase. Potency, µM (doses to about 57.7 µM), for the others: top-dose activity change, negative = inhibition, actives largely listed as inhibitors. AID 1671188. 0.25% of 100,000 active. Recombinant GPT2, coupled pyruvate oxidase/HRP Amplex Red fluorescence. Q8TD30; note: nearly all actives have a fitted effect of over 60% in size; many of its hits are not listed in these tables
Target sequence (Q8TD30 whole entry, looked up): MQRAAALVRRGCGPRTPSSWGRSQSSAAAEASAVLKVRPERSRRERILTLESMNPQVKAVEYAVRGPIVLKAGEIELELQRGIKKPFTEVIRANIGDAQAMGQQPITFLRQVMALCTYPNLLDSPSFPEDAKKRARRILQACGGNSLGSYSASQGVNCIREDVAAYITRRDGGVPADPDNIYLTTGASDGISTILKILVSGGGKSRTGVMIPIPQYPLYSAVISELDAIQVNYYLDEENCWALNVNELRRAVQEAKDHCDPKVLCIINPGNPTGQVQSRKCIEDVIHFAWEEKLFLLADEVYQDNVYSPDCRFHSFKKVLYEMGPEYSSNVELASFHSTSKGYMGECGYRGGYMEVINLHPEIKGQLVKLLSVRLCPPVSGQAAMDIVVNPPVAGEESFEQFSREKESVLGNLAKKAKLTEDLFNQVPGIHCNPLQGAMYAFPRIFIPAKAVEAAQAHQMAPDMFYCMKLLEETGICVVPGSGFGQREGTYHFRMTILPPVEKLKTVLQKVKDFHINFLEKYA
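Inhibition is scored from Amplex Red fluorescence generated when pyruvate oxidase and HRP act on pyruvate released by GPT2. Reactions contain 10ng/uL enzyme, 250uM a-KG and 2mM L-alanine and run 30 min at room temperature.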
Luciferase inh – blocks purified firefly luciferase enzyme activity | P08659 | purified P. pyralis luciferase, luminescence, biochemical | Potency, µM (doses to about 115 µM), without a hit: at the highest dose activity change, negative = inhibition, actives largely listed as inhibitors | 2.5% of 76,000 active | AID 1347043; note: nearly all actives have a fitted effect of over 65% in size
Target sequence (P08659 whole entry, looked up): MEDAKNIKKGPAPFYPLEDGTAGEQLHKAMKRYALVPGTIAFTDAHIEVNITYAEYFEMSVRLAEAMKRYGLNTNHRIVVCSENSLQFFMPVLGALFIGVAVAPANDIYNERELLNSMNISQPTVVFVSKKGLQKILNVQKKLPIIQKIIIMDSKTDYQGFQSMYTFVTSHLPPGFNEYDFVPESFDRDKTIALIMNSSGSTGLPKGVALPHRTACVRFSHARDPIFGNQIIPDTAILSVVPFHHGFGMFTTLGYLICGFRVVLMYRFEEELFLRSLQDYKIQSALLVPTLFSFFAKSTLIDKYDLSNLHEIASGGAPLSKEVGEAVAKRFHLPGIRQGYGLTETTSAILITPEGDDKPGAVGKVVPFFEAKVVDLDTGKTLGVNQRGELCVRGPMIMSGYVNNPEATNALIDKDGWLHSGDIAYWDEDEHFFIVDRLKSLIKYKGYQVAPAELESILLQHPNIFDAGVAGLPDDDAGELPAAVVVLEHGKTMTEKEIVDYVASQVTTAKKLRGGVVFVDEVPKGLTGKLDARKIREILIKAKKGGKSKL
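Biochemical qHTS: compound (6-point titration) added to 10uM D-luciferin plus 10uM ATP in Tris acetate pH 7.5 buffer with Mg, Tween-20 and BSA, then purified enzyme at 10nM; light output imaged.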
HEK cytotox – HEK 293 cell cytotoxicity. Potency, µM (doses to about 115 µM), inactives show at the highest dose activity change, negative = cytotoxicity, usual class: inhibitors. HEK 293 viability, ATP luminescence (CellTiter-Glo), 48-72 h. 6.6% of 94,000 active. AID 1345083; note: nearly all actives have a fitted effect of over 60% in size
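Viability of HEK 293 cells, plated at 250 cells/well, was judged by cellular ATP after compound treatment for 48 or 72 hr. Luminescence was imaged 10 min after CellTiter-Glo addition at room temperature.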
SNCA viab count – reduces viability of HEK-293 SNCA reporter cells; 0.12% of 150,000 active; Potency, µM (series often up to 57.1 µM), for inactives: at the top dose activity change, negative = cytotoxicity, usual class: cytotoxic; HEK-293-SNCA-luc viability, GF-AFC fluorescence, 24 h;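 note: 0% = DMSO-treated cells and -100% = medium-only wells without cells; nearly all actives have a fitted effect of over 30% in size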
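Cytotoxicity counterscreen: after 24 h compound treatment of genome-edited SNCA-luciferase HEK-293 cells, live-cell protease substrate GF-AFC read by fluorescence after 30 min; activity scaled between DMSO (0%) and medium-only (-100%), curves Hill-fitted.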
SNCA expr inhib – inhibitors of alpha-synuclein (SNCA) gene expression; HEK-293 SNCA-luciferase knock-in, luminescence, 24 h; Potency, µM (titrated, usually from 57.2 µM), for the others: at the highest dose activity change, negative = inhibition, usual class: inhibitors; 0.17% of 140,000 active; AID 1671194;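 note: plate controls were DMSO cells for no effect and cell-free wells for full effect; nearly all actives have a fitted effect of over 45% in size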
An asterisk follows results filed as active; i = inactive; ? = inconclusive; . = no result given; & = joins results of further samples; [ ] = dose if it differs, or a comment. Calls come from the whole dose curve; as a rule, active = well fitted curve in the direction sought with a large enough effect; inconclusive = small, poorly fitted or top-dose-only effect, or another doubt; inactive = no such curve, though single readings can be large; an effect the other way counts as inactive or inconclusive. Unless noted, % is set by controls: 0 for no effect and ±100 for the full control effect; potency is the fitted concentration of half-maximal effect. Some of the compounds tested; the hit share may differ from the screen's.

Each structure is followed by: 3T3 cytotox	GPT2 inh	Luciferase inh	HEK cytotox	SNCA viab count	SNCA expr inhib
- Fc1cccc(CSc2ccc(-c3cccs3)nn2)c1
    .	.	.	.	-11.4%	67.2%[activator]
- CCNC(=O)CC1C(=O)N(c2ccc(F)cc2)C(=O)N1Cc1ccc(OC)c(OC)c1 (stereo unspecified)
    .	.	.	.	3.1%	-0.5%
- CSc1cccc(NC(=O)Cn2c(Nc3cc(C)cc(C)c3)nc(C)cc2=O)c1
    ?	i	9.0%	?	?	?
- CC(=O)N1c2ccc(S(=O)(=O)NCC3CCC(C(=O)Nc4cccc(F)c4)CC3)cc2CC1C (stereo unspecified)
    .	.	.	.	-8.0%	?
- O=C(COc1ccccc1)NCCc1csc(-c2ccc(F)cc2)n1
    .	.	.	.	-2.9%	3.4%
- CC(C)(C)C(=O)NC1(C(F)(F)F)C(=O)Nc2c1c(=O)[nH]c(=O)n2-c1ccccc1 (stereo unspecified)
    .	.	.	.	-2.9%	3.7%
- CC(C)CNC(=O)C(=O)Nc1c2c(nn1-c1ccc(Cl)cc1)CSC2
    .	.	.	.	-2.8%	-18.7%
- CCc1ccc(NC(=O)Cn2nc(SC)c(S(=O)(=O)c3ccc(OC)cc3)c2N)cc1
    .	.	.	.	4.3%	12.7%
- COc1ccc(-c2[nH]nc3ncc(C(=O)N4CCC(c5ccccc5)CC4)nc23)c(C)c1
    ?	-7.4%[88.5 µM]	5.6%[172 µM]	?	-16.0%[87.6 µM]	-9.7%[87.6 µM]
- CC(=O)N1c2ccc(S(=O)(=O)NCC3CCC(C(=O)Nc4ccc(F)cc4)CC3)cc2CC1C (stereo unspecified)
    .	.	.	.	8.4%	-17.3%
- CCc1nn2c(-c3ccco3)ccnc2c1-c1ccccc1
    .	.	.	.	-0.3%	32.3%
- O=C(NC1CCCCC1)N1CCCCCC1c1nc(-c2ccncc2)no1 (stereo unspecified)
    ?	i	12.7%	?	-20.1%	11.6%
- COc1ccc(S(=O)(=O)c2c(SC)nn(CC(=O)Nc3cccc(C)c3C)c2N)cc1
    .	.	.	.	-15.7%	?
- CN1[C@H]2CC(OC(=O)[C@@H](CO)c3ccccc3)C[C@H]1[C@H]1O[C@H]12 (stereo partly specified)
    .	i	.	.	-6.1%[23.9 µM]	-4.3%[25.6 µM]
- Cc1ccc(C)c(N2CCN(C(=O)CCc3nnc4n(CC(C)C)c(=O)c5ccccc5n34)CC2)c1
    .	.	.	.	5.2%	38.4%[activator]
- O=C1Nc2ccccc2C12CCN(Cc1cccc3ccccc13)C2 (stereo unspecified)
    79.4µM*	-2.3%	.	79.4µM*	-14.8%	0.2%
- CN1C(C(=O)Nc2ccc(F)cc2F)=CC(c2ccc3c(c2)OCO3)=NS1(=O)=O
    .	.	.	.	-17.0%	58.0%[activator]
- COc1ccccc1CNC(=O)C(=O)NCC(c1cccnc1)N1CCN(c2ccc(F)cc2)CC1 (stereo unspecified)
    .	.	.	.	1.7%	?
- COc1ccc(OC)c(Nc2ncnc3c2cnn3-c2ccc(C)cc2)c1
    .	.	.	.	-2.8%	71.1%[activator]
- Cc1cc(C(=O)N2CCC(n3c(=O)[nH]c4ccccc43)CC2)ccc1Cl
    ?	i	-4.4%	?	5.9%	16.0%
- COc1ccccc1Cn1c(SCC(=O)C(C)(C)C)nc2ccccc2c1=O
    .	.	.	.	1.3%	23.8%
- CCCCOc1cccc(C(=O)Nc2ccc3oc(-c4cccnc4)nc3c2)c1
    .	.	.	.	3.8%	-5.0%
- O=C(c1nc(-c2ccc(Cl)nc2)c2cnccn12)N1CCOCC1
    3.4%	-0.7%	.	i	0.5%	145.4%[activator]
- O=C(NCCCN1Cc2ccccc2C1)c1cccc(C2CCCNC2)c1 (stereo unspecified)
    -27.4%	-5.3%	0.8%	-22.3%	-24.3%	-24.9%
- CCC(C(=O)Nc1cc(C)ccc1OC)n1nnc(C(=O)OC)c1C(=O)OC (stereo unspecified)
    .	.	.	.	-3.0%	37.4%[activator]
- CCOC(=O)c1cc(-c2ccc(OC)cc2)nn1Cc1ccccc1
    .	.	.	.	7.8%	75.7%[activator]
- Cc1ccc(NC(=O)c2sc(-n3nc(C)c(Cc4ccc5c(c4)OCO5)c3C)nc2C)cc1C
    .	.	.	.	-5.2%	-8.6%
- Cc1nn(C)c2c1c(C(F)(F)F)cc(=O)n2CC(=O)NCc1ccccc1Cl
    .	.	.	.	1.2%	-3.2%
- N#Cc1ccc(CN2CC3(Cc4ccccc4NC3=O)C2)cc1
    -6.6%	i	.	-21.2%	-2.3%	5.8%
- CCC(C)NC(=O)CCSc1nc(-c2ccc(OC)cc2)cc(C(F)(F)F)n1 (stereo unspecified)
    .	.	.	.	9.9%	2.6%
- CC(=O)N1c2ccc(S(=O)(=O)NCC3CCC(C(=O)NCCC(C)C)CC3)cc2CC1C (stereo unspecified)
    .	.	.	.	3.1%	-23.9%
- Cc1ccccc1NC(=O)C(=O)NCC(c1ccc2c(c1)OCO2)N1CCN(c2ccccc2)CC1 (stereo unspecified)
    .	.	.	.	15.8%	21.8%
- COCCCNC(=O)c1cnc2n[nH]c(-c3ccccc3)c2n1
    ?	?	8.7%[172 µM]	100µM*	-20.5%[87.6 µM]	?
- COc1ccc(NC(=O)C(C)n2nc(-c3ccc(C)c(C)c3)ccc2=O)cc1OC (stereo unspecified)
    .	.	.	.	-8.3%	-4.6%
- COc1ccc(-n2nc3c(c2NC(=O)C(=O)NCc2ccccc2)CSC3)cc1
    .	.	.	.	-2.3%	3.9%
- O=C(NC1(C(F)(F)F)C(=O)Nc2c1c(=O)[nH]c(=O)n2-c1ccccc1)c1ccccc1 (stereo unspecified)
    .	.	.	.	5.2%	23.0%
- COc1ccc(-n2ccnc(NCc3ccc(Cl)cc3)c2=O)cc1
    .	.	.	.	6.2%	-8.7%
- Cc1cccc(NC(=O)c2cc3c(=O)n(Cc4cccnc4)ccc3nc2C)c1
    .	.	.	.	5.1%	4.0%
- CN(C)C(=O)c1nc(-c2ccc(Cl)nc2)c2ccccn12
    ?	i	.	-6.6%	-13.1%	144.1%[activator]
- Cc1ccc(S(=O)(=O)c2nc(-c3ccc(F)cc3)oc2SCC(=O)NC2CCCCC2)cc1
    .	.	.	.	6.2%	-2.1%
- CCc1ccccc1N(C)C(=O)Nc1cn(CC(C)C)c(=O)c2ccccc12
    .	.	.	.	5.5%	6.6%
- COc1ccc(-c2nc(CN3CCN(CCO)CC3)c(C)o2)c2ccccc12
    ?	0.3%	16.1%	?	-17.5%	19.7%
- Cc1cnc(C2CC2)n1CCNC(=O)C1CCN1C1CCCCC1 (stereo unspecified)
    -20.3%	1.8%	6.5%	-31.7%	-13.4%	-10.5%
- CSc1ccc(/C=C/c2nc3ccccc3n2S(=O)(=O)c2ccc(Br)cc2)cc1
    .	.	.	.	-5.7%	-89.5%
- O=C(NCc1cccc(F)c1)c1cnc2c(c1)N(C(=O)CCc1ccccc1)CCC2
    ?	-5.9%[88.5 µM]	5.9%[172 µM]	?	-1.2%[87.6 µM]	?
- CCOC(=O)c1c(NC(=O)COc2cccc(C(F)(F)F)c2)sc2c1CCC(C)C2 (stereo unspecified)
    .	.	.	.	-3.3%	17.7%
- CCCNC(=O)N1CCC(c2noc(COc3ccc(F)cc3)n2)C1 (stereo unspecified)
    -24.0%	i	8.2%	?	-1.9%	8.2%
- Clc1ccc(-c2noc(-c3cccnc3NCc3ccco3)n2)cc1
    .	.	.	.	-9.8%	107.7%[activator]
- COc1ccc(NC(=O)c2cc3c(=O)n(Cc4cccnc4)ccc3nc2C)cc1Cl
    .	.	.	.	-2.1%	17.0%
- CC(C)Cn1cc(NC(=O)NCc2cccc(Cl)c2)c2ccccc2c1=O
    .	.	.	.	-2.0%	-17.7%
- O=C(NCc1ccc2c(c1)OCO2)c1cnc2c(c1)N([S+](=O)([O-])c1cccnc1)CCC2
    ?	?	-5.0%	-16.7%	7.0%	5.1%
- O=C(NCc1cccs1)c1nc(-c2cc(Cl)cc(Cl)c2)c2ccccn12
    2.4%	-3.7%	1.5%	i	-2.4%	-1.8%
- Cc1ccc(NC(=O)c2cc3c(=O)n(Cc4cccnc4)ccc3nc2C)cc1F
    .	.	.	.	-3.9%	64.1%[activator]
- CC(C)NC(=O)C1=NOC2CN(C(=O)C3CC3)CC12 (stereo unspecified)
    -9.2%[138 µM]	3.9%[88.5 µM]	.	-6.4%[172 µM]	0.4%[87.6 µM]	9.6%[87.6 µM]
- CCOc1ccc(S(=O)(=O)Nc2ccc3c(c2)CCCN3C(=O)c2cccs2)cc1
    .	.	.	.	4.7%	-18.4%
- Cn1cc([C@@H](NC(=O)c2ccc3scnc3c2)C2CC(O)C2)cn1 (stereo partly specified)
    -20.6%&4.3%	?	-0.9%&-10.4%	i	-2.6%&9.4%	-0.9%&3.6%
- CC(C)(C)CC(=O)NCC(c1ccc2c(c1)OCO2)N1CCOCC1 (stereo unspecified)
    .	.	.	.	14.7%	7.9%
- Cc1nn2c(-c3ccco3)ccnc2c1-c1ccc(Cl)cc1
    .	.	.	.	5.1%	102.5%[activator]
- Cc1ccc(N2CC3=C(C2=O)C(c2ccc(Br)cc2)NC(=O)N3C)cc1 (stereo unspecified)
    .	.	.	.	3.7%	-1.7%
- Cn1cc(-c2cnc(Nc3cncnc3)c3c2CCO3)cn1
    100µM*	i	0.3%[172 µM]	-10.6%[172 µM]	6.2%[87.6 µM]	8.9%[87.6 µM]

The listing continues.
Each structure is followed by: 3T3 cytotox	GPT2 inh	Luciferase inh	HEK cytotox	SNCA viab count	SNCA expr inhib
- COc1ccc(CCNc2nc3ccc(Cl)cc3n3cnnc23)cc1OC
    .	.	.	.	-6.8%	44.4%[activator]
- COc1ccc(-c2cc(-c3cccc(CO)c3)cn3cncc23)cn1
    39.8µM*	-6.5%[88.5 µM]	0.7%[172 µM]	?	-13.7%[87.6 µM]	-28.0%[87.6 µM]
- O=C(c1nc(-c2ccc(Cl)nc2)c2ccccn12)N1CCOCC1
    ?	-1.5%	.	-0.2%	-13.2%	62.0%[activator]
- COc1cccc(-c2ccccc2NC(=O)C2CCN(C/C(C)=C/c3ccccc3)CC2)c1
    ?	-20.6%	-7.9%	?	-28.1%	?
- O=C(COc1ccccc1)NCCc1csc(-c2cccc(F)c2)n1
    .	.	.	.	11.6%	-18.4%
- COc1ccccc1-c1nc(C(=O)NCc2ccc3c(c2)OCO3)n2ccncc12
    -21.6%	-7.1%	-6.1%	?	20.0%	-9.4%
- O=C(c1ccccn1)N1CCC(n2c(=O)[nH]c3ccccc32)CC1
    2.9%[138 µM]	-5.4%[88.5 µM]	.	2.3%[172 µM]	5.4%[87.6 µM]	-20.8%[87.6 µM]
- N#Cc1ccc(CN2CCC3(Cc4ccccc4NC3=O)C2)cc1 (stereo unspecified)
    ?	i	-2.2%[172 µM]	89.1µM*	-3.0%[87.6 µM]	14.5%[87.6 µM]
- Cc1ccccc1CSc1ccc(-c2cccs2)nn1
    .	.	.	.	9.9%	82.7%[activator]
- Clc1cccc(CSc2ccc(-c3cccs3)nn2)c1
    .	.	.	.	10.2%	86.0%[activator]
- O=C(Nc1ccc2c(c1)CCCN2C(=O)c1cccs1)c1ccccc1C(F)(F)F
    .	.	.	.	-10.5%	-28.5%
